Assay outcomes (PubChem)
Ecoli rRNA inh: inhibits bacterial ribosomal RNA function over humanized ribosomes | E. coli WT GFP vs humanized-ribosome RFP mutants, fluorescence, 24 h; active compounds read low; DMSO median 0, no signal -100 | GFP signal change (wild-type ribosome), % (test concentration not listed) | 350,000 tested, 1.6% active | AID 720706;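 active = significant combined selectivity score with lowered wild-type GFP, culture density cut under 30%, mutant RFP and density less affected; inactive = any of these conditions unmet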; note: one replicate is shown; some compounds called inactive have numbers as strong as hits
ALR inh: human ALR oxidase inhibition via reduced H2O2; P55789; purified ALR, DTT oxidation, H2O2 HRP-luminol luminescence; inhibition, % (concentration not given with the values); 290,000 tested, 3.8% active; AID 485317;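 active = mean and each replicate at 75% or more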;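 note: stock transfer was 7.5 nL into about 7.5 µL; 0% = neutral wells and 100% = wells with inactivated enzyme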
Target sequence (P55789 whole entry, looked up): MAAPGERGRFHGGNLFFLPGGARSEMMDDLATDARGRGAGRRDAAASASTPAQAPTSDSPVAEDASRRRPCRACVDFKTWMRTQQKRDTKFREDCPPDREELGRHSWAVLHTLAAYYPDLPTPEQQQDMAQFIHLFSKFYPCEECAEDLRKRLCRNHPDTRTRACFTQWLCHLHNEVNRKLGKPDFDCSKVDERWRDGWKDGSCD
T cruzi inh: blocks replication of Trypanosoma cruzi. AID 1885. T. cruzi beta-gal in NIH3T3, luminescence, 90 h. 300,000 tested, 1.4% active. inhibition, % (concentration not given with the values);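 active = mean inhibition across valid replicates above about 55%, limit read from the data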;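 note: signal also drops with host cell toxicity which is not excluded here; 0% = plate median of DMSO wells and 100% = zero luminescence signal; higher percent means less beta-gal luminescence so fewer parasites; stock transfer was 50 nL into about 50 µL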
Beta cell apopt: beta cell apoptosis inhibition. 300,000 tested, 0.8% active. INS-1E cytokine-induced death, ATP luminescence, 48 h; percent of positive-control rescue, neutral wells zero. protection from apoptosis, % (test concentration not listed). AID 435005;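 active = all replicates at 75% or more, or half of them and the mean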;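 note: 0% = cytokine-treated negative control wells and 100% = positive control rescue; higher means more ATP so stronger rescue from cytokine killing; wells of about 40 µL received 100 nL stock; the first replicate is given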
A1 inh: inhibitors of the anti-apoptotic protein A1, read as caspase activation; 330,000 tested, 0.066% active; MEF A1-2A-BIM cells, Caspase-Glo 3/7 luminescence, 3 h; percent of clofoctol response, vehicle zero; caspase activation, % (no concentration beside the values);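 active = over half of replicate activation scores above 10%, or exactly half above 10 with the replicate mean above 10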;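 note: wells of about 30 µL received 50 nL stock; many hits fall short of the cut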
Calb FLC: affects C. albicans growth with fluconazole; 300,000 tested, 0.57% active; growth inhibition, % (concentration not given with the values); C. albicans CaCi-2 (fluconazole-resistant clinical isolate) + fluconazole, Alamar Blue growth, 48 h;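 active = most replicates above 75%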;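 note: all wells also contain fluconazole at 8 µg/ml as a sub-toxic cotreatment; 0% = median of DMSO wells and 100% = median of geldanamycin control wells; wells of about 8 µL received 7.5 nL stock; the first replicate is given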
LANA-H2A inh: blocks KSHV LANA binding to histone H2A/H2B | Q9QR71 | cell-free LANA-H2A/H2B peptide, fluorescence polarization | inhibition, % (test concentration not listed) | 320,000 tested, 0.6% active; in the data active = inhibition mostly above about 10%, no sharp cut-off; inactive = mostly below about 6.7%;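 note: stock transfer was 7.5 nL into about 10 µL; 0% = median of vehicle wells and 100% = median of positive control wells; one replicate is shown; the record names a cut of 25% in any replicate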
B2AR ag: agonists of human beta-2 adrenergic receptor inducing internalization | P07550 | Am2.2-beta2AR cells, FAP receptor internalization, flow cytometry; reference of the scale not given here | response, % (no concentration beside the values) | 340,000 tested, 0.43% active | AID 504454;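 active = response above a set limit, near 3 SD of response in nonfluorescent compounds, cut at about 42% in these data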;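 note: stock transfer was 100 nL into about 11 µL; a reference agonist was the positive control; negative values mostly stem from fluorescent compounds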
Target sequence (P07550 whole entry, looked up): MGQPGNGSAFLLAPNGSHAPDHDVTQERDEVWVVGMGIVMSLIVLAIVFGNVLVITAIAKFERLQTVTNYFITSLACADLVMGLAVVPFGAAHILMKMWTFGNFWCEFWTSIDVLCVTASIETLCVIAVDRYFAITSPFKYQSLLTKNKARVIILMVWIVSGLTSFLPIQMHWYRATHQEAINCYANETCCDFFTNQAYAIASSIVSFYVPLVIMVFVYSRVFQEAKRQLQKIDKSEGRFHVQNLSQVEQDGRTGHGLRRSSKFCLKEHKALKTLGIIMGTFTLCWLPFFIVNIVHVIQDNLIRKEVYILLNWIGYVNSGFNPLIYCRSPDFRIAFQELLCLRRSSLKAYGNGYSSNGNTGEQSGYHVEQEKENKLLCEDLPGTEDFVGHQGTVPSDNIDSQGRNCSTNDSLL
Ecoli rRNA inh OD600: also measured in Ecoli rRNA inh; calls as there; OD600 change, %; measured here: OD600 growth;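 optical density of the mix in the first replicate; 0 = DMSO median and -100 = no signal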
Ecoli rRNA inh RFP: also measured in Ecoli rRNA inh; calls as there; RFP signal change, %; measured here: RFP humanized mutant strains;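 first replicate; 0 = DMSO median and -100 = no signal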
* = called active by the depositor; x = not tested or not shown.

| Compound | Ecoli rRNA inh | Ecoli rRNA inh OD600 | Ecoli rRNA inh RFP | ALR inh | T cruzi inh | Beta cell apopt | A1 inh | Calb FLC | LANA-H2A inh | B2AR ag |
| --- | --- | --- | --- | --- | --- | --- | --- | --- | --- | --- |
| CNC(=O)/C(C#N)=C/c1c(N2CCN(c3ccc(OC)cc3)CC2)nc2c(C)cccn2c1=O | 3 | 6 | -4.9 | 14 | 12 | 2 | -0.9 | 3 | 0.6 | 4 |
| Cc1ccc(CSc2nnc(-c3ccncc3)n2CC2CCCO2)cc1 (stereo not drawn) | x | x | x | -8 | 5 | -3 | 0.0 | -19 | -3.6 | 7 |
| O=S(=O)(Nc1ccccc1)c1ccc2c(c1)CCO2 | -7 | -4 | 2.6 | -8 | -1 | -9 | 0.1 | 4 | -9.3 | -5 |
| Cc1ncoc1C(=O)N1CCCC(CCC(=O)NCc2ccc(F)c(F)c2)C1 (stereo not drawn) | 9 | 4 | 0.5 | -1 | 13 | x | 1.3 | -5 | -1.2 | 0 |
| CCC(C)[C@H](N)c1nnc(SCC(=O)Nc2ccc(C)cc2C)o1 (stereo partly drawn) | 7 | 8 | 0.5 | -2 | -7 | -3 | 0.2 | x | 2.2 | -2 |
| O=C(Nc1ccc(F)cc1F)c1ccc2nc(N3CCOCC3)sc2c1 | 6 | 16 | -0.6 | x | -10 | 2 | -2.3 | 11 | -0.9 | 4 |
| Cc1cc(C)nc(SCC(=O)N2CCc3ccccc32)n1 | 7 | 4 | 3.5 | x | -8 | -9 | -5.8 | -1 | -2.6 | -7 |
| COc1ccc(CN2CCC(N3CCC(C(=O)N4CCOCC4)CC3)CC2)c(F)c1 | 10 | 11 | 2.4 | -3 | 6 | -5 | 0.5 | 0 | -1.6 | 1 |
| Cc1ccc2oc(=O)c3cnn(CC(=O)NC4CCCCC4C)c3c2c1 (stereo not drawn) | 0 | -2 | 4.5 | -17 | 5 | x | 1.2 | -2 | 0.6 | 7 |
| c1csc(-c2noc(COc3ccc4c(c3)CCCC4)n2)c1 | x | x | x | x | -14 | 4 | -1.1 | 14 | -1.9 | -4 |
| COc1ccc(NC(=O)CSc2ncnc3[nH]ncc23)cc1 | 13 | 2 | 3.9 | 99* | -4 | -2 | 0.2 | 4 | -0.3 | 7 |
| S=C(N/N=C/c1ccc(Br)cc1)N1CCCCC1 | 14 | 9 | 2.1 | 62 | 2 | 2 | -6.0 | 10 | 3.6 | 5 |
| CN1CCN(C(=O)/C(=C/c2ccccc2)c2ccccc2)CC1 | x | x | x | -8 | -5 | -3 | 1.0 | -13 | -1.2 | 3 |
| CCCCNC(=O)c1ccccc1NC(=O)c1ccc2c(c1)OCO2 | 3 | 7 | -2.2 | 3 | 2 | -1 | -0.3 | 8 | 5.2 | 6 |
| O=C(Nc1ccc(N2CCN(C(=O)c3ccccc3)CC2)cc1)c1cc([N+](=O)[O-])ccc1N1CCOCC1 | -6 | 0 | -0.9 | 13 | 19 | 15 | 0.4 | 1 | -1.8 | -5 |
| CN(c1ccc(Cl)cc1)c1cc(=O)n(C)c2ccccc12 | x | x | x | -5 | 26 | -4 | -0.2 | -3 | 0.3 | -5 |
| CC(C)(C)OC(=O)N/N=C/c1cn(-c2ccccc2)nc1-c1cccnc1 | -2 | 7 | 1.9 | 4 | 6 | 3 | 1.4 | 0 | 0.1 | -14 |
| COc1ccc(S(=O)(=O)NCC(c2ccc3c(c2)OCO3)N2CCN(C)CC2)cc1OC (stereo not drawn) | 9 | 18 | -1.4 | 0 | -8 | -1 | 0.4 | -3 | -3.7 | -6 |
| CCOC(=O)N1CCN(C(=O)/C=C/c2ccc3c(c2)OCO3)CC1 | 12 | 12 | 1.1 | x | -4 | -4 | 0.3 | 9 | 0.3 | -8 |
| CC(=O)Nc1ccc(C(=O)OCCCOC(=O)c2ccc(NC(C)=O)cc2)cc1 | -1 | -1 | 2.8 | -1 | 0 | -5 | 1.6 | 3 | -1.1 | 3 |
| CCCN1CCN(CCCNC(=O)Cn2nc(-c3ccc(Cl)cc3)ccc2=O)CC1 | x | x | x | -4 | 3 | 9 | 0.3 | -1 | -7.6 | -1 |
| CN1CCc2c(sc3c2C(=O)NC(/C=C/c2ccco2)N3)C1 (stereo not drawn) | 11 | 2 | 8.6 | -7 | -1 | -2 | 0.7 | -7 | -14 | -9 |
| Cc1nn(-c2ccccc2)c(OC(=O)c2cccs2)c1S(=O)(=O)c1ccc([N+](=O)[O-])cc1 | x | x | x | -32 | -6 | -5 | -0.1 | 10 | -2.7 | -11 |
| CCCCc1ccc(NC(=S)N2CCCC(C)C2)cc1 (stereo not drawn) | -9 | -4 | 2.2 | -3 | 6 | -17 | 0.5 | -22 | -4.0 | 0 |
| CN(C)c1ccc(/C=N/NC(=O)c2nnn(-c3nonc3N)c2COc2ccc(F)cc2)cc1 | 9 | 9 | -0.8 | -11 | 2 | 0 | 0.9 | -3 | 1.8 | 3 |
| O=C(CSc1nc(O)cc(=O)[nH]1)C1CC1 | x | x | x | 86* | -27 | -5 | -0.2 | -10 | 3.2 | -1 |
| c1ccc(Cn2nnc(CNc3ccccc3)c2-c2c(CNc3ccccc3)nnn2Cc2ccccc2)cc1 | x | x | x | 18 | 17 | 59 | -0.7 | 10 | 3.3 | 9 |
| O=S(=O)(c1ccc(Cl)cc1)N1CCN(c2ccc(N3CCOCC3)nn2)CC1 | x | x | x | x | 23 | 5 | 0.4 | -4 | 2.1 | -7 |
| CCCCN(C)C(=O)CCC(=O)NNc1nc2ccccc2c2nc(C)nn12 | x | x | x | -4 | -10 | -6 | 1.2 | -5 | -1.6 | 6 |
| CSc1nc2ccc(NC(=O)c3nn(C(C)C)c(=O)c4ccccc34)cc2s1 | x | x | x | -11 | -8 | 7 | 0.0 | 7 | -9.3 | 1 |
| C/C(=N/NC(=O)c1ccco1)c1cccnc1 | 13 | 17 | -0.4 | 0 | -20 | 3 | -0.2 | 18 | 0.1 | 2 |
| O=C1/C(=C/c2cccs2)CCc2ccccc21 | x | x | x | -16 | 20 | 0 | -13 | -24 | 0.7 | 2 |
| N/C(=N\OC(=O)c1ccc(Br)o1)c1cccnc1 | 4 | 0 | -1.7 | x | -7 | -4 | -3.1 | -5 | x | 0 |
| O=C(CSc1nnc(Cc2cccs2)n1-c1ccccc1)NC1CCCCC1 | x | x | x | 0 | 0 | -3 | 0.6 | -1 | 1.5 | -8 |
| COCc1c(Br)c(C)[nH]c(=O)c1C#N | x | x | x | -5 | -18 | -5 | 0.0 | -3 | 7.7 | -3 |
| O=C(CNC(=O)C1CCCCC1)Nc1ccccc1Cl | x | x | x | 0 | -3 | 4 | 0.5 | 10 | -9.3 | -5 |
| Cc1ccn2cc(-c3cccc(NS(C)(=O)=O)c3)nc2c1 | 1 | 2 | -0.7 | 97* | -4 | -2 | 0.0 | 30 | 4.7 | -9 |
| NC(=O)C1CCCN(C(=O)c2ccc3c(c2)NC(=O)CS3)C1 (stereo not drawn) | 8 | 15 | -0.5 | -1 | x | -2 | 0.3 | x | -5.1 | -1 |
| O=C(CSc1nc2ccccc2o1)NCc1ccc2c(c1)OCO2 | -28 | -48 | -8.6 | 36 | 9 | -5 | -0.7 | -9 | 4.4 | 3 |
| O=C(/C=C/Nc1ccccc1O)c1ccco1 | 3 | 1 | 0.0 | 10 | -1 | -4 | -6.0 | -23 | 2.5 | 1 |
| CCc1noc(C)c1C(=O)NNC(=O)c1ccc(Br)cc1 | 6 | 14 | 2.0 | 0 | -11 | 2 | 0.0 | x | 5.6 | -5 |
| O=C(COc1ccccc1)N1CCN(C(=O)c2cccc(F)c2)CC1 | x | x | x | -1 | -1 | -3 | -0.6 | 6 | -3.8 | -1 |
| CCCC(NS(=O)(=O)c1ccc(-c2ccc(=O)[nH]n2)s1)c1cccs1 (stereo not drawn) | -13 | -36 | -1.5 | -9 | -7 | 0 | -0.3 | -2 | 0.0 | 5 |
| Cc1ccc(-c2cc(C(=O)N3CCc4ccccc4C3)no2)cc1 | -3 | 2 | 2.7 | -5 | 6 | -4 | 0.1 | -17 | -21 | -17 |
| CCCC(=O)Nc1nc2ccc(NC(=O)c3cccnc3)cc2s1 | -10 | -4 | 4.7 | -3 | -14 | 12 | -0.1 | 22 | 1.7 | -8 |
| CCCN(CCC)C1CC(=O)N(Cc2ccccc2)C1=O (stereo not drawn) | x | x | x | -7 | 2 | -6 | -0.5 | -4 | -0.3 | -1 |
| Cc1ccc(C(=O)NCC(=O)NCC(=O)OCC(=O)c2cccs2)cc1 | x | x | x | -15 | -7 | -7 | -0.1 | -12 | 4.2 | 6 |
| CN(CC(=O)Nc1ccc(Cl)cc1)C(=O)COc1ncnc2ccccc12 | 6 | 5 | 0.9 | -5 | x | 0 | -0.5 | x | -3.0 | 3 |
| Cc1ccc(S(=O)(=O)N2CCOCC2)cc1NC(=O)CN1CCC(Cc2ccccc2)CC1 | -6 | -9 | -0.1 | x | 49 | -1 | -0.1 | -14 | 0.3 | -1 |
| Cc1ccccc1C(=O)Nc1cccc(NC(=O)c2ccc(F)cc2)c1 | -15 | -19 | -2.0 | -9 | -14 | 3 | 0.3 | 14 | 0.8 | 0 |

The list continues.
| Compound | Ecoli rRNA inh | Ecoli rRNA inh OD600 | Ecoli rRNA inh RFP | ALR inh | T cruzi inh | Beta cell apopt | A1 inh | Calb FLC | LANA-H2A inh | B2AR ag |
| --- | --- | --- | --- | --- | --- | --- | --- | --- | --- | --- |
| CC(=O)Nc1ccc(S(=O)(=O)Nc2ccc(Cl)cn2)cc1 | 3 | 10 | -3.7 | -5 | -13 | -5 | 1.2 | 4 | 2.4 | -3 |
| CNS(=O)(=O)c1cccc(C(=O)OCC(=O)Nc2ccc(Cl)cn2)c1 | 6 | 4 | -4.1 | 0 | -10 | -4 | -0.4 | -2 | -0.4 | 1 |
| O=C(NCCSCc1ccccc1)c1ccccc1 | -12 | -16 | -1.8 | -31 | -11 | 4 | -2.0 | -11 | -0.2 | -16 |
| Cc1ccc2cccc(OCc3nnc(SCC(=O)O)n3C)c2n1 | 10 | 8 | -3.1 | -4 | -12 | 3 | 0.2 | 2 | -0.3 | 3 |
| O=C(NCc1cccnc1)[C@@H]1CC=C[C@@H]2CCN(Cc3ccc(Cl)c(Cl)c3)C(=O)[C@@H]21 | -53 | -74 | -21 | -12 | 18 | -6 | -0.6 | -13 | 1.6 | -7 |
| COc1ccc(N(C(=O)c2ccco2)C(C(=O)NC2CCCCC2)c2ccccc2)cc1 (stereo not drawn) | x | x | x | 2 | 1 | -2 | -0.8 | -3 | 1.4 | 24 |
| NNC(=O)/C(=C\c1ccc(Br)cc1)NC(=O)c1cccs1 | 15 | 11 | -6.5 | -7 | -36 | -2 | -0.4 | 10 | 1.2 | -5 |
| CCOC(=O)C1=C(C)N=c2s/c(=C\c3ccc(C(=O)O)cc3)c(=O)n2C1c1ccc(F)cc1 (stereo not drawn) | 11 | 13 | 2.6 | 70 | 1 | 16 | 0.2 | 8 | 4.6 | 23 |
| CCCCSCc1cc(C(=O)O)oc1C(C)(C)C | -3 | 0 | -4.5 | 4 | -1 | -4 | 1.1 | -3 | 0.2 | 4 |
| CCc1cccc(CC)c1NC(=O)c1cc(CN2C(=O)c3ccccc3C2=O)ccc1OC | 5 | -10 | 2.5 | -9 | 3 | -11 | 1.1 | 6 | -1.5 | 28 |
| Cc1ccc2cccc(OC(=O)/C=C\c3ccccc3)c2n1 | 7 | -10 | -0.5 | 38 | -13 | 1 | 0.1 | 33 | 0.3 | -2 |

Only part of the results is shown, so the mix of outcomes need not match the whole.
